Screening results from PubChem.
Vaccinia stage: Vaccinia orthopox stage-specific inhibition | activity change (mCherry), % (concentration not given with the values) | Vaccinia-infected cells, mCherry/Venus stage reporter fluorescence; hits give low values; some inactives read as strong as hits | 0.01% of 89,000 active;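 active = mCherry past -33% and 40 or more points under the early reporter, replicates agreeing; inconclusive = past -33% without that gap or agreement; tested in A549 cells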;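 also: scaled between vehicle wells and reference inhibitor wells; 23 nL library stock went into each well; one replicate is shown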
Vaccinia stage Venus: recorded beside Vaccinia stage, whose call it bears; activity change (Venus), %; measured here: Venus reporter, other viral stage;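 negative = less Venus signal; first of two replicates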
* marks the source's active call; other numbers are inactive results; u = inconclusive; x = not tested or not shown; & = joins results of further samples. A portion of the library. The share of hits here may be higher or lower than overall.

SMILES	Vaccinia stage	Vaccinia stage Venus
CCC(=O)N1CC[C@@H]2[C@H]1c1cc(C#Cc3cccc(F)c3)ccc1N(C)[C@H]2CO	1	8
CC(C)NC(=O)N(C)C[C@@H]1Oc2c(NC(=O)NC3CCCCC3)cccc2C(=O)N([C@H](C)CO)C[C@H]1C	1	3
O=C(Nc1cc(F)ccc1F)N1CCCCN2[C@H](CO)[C@H](c3ccc(-c4ccncc4)cc3)[C@@H]2C1	19	7
CC(C)CC#Cc1cnc2c(c1)C(=O)N([C@@H](C)CO)C[C@@H](C)[C@H](CN(C)C(=O)c1ccc(F)cc1)O2	-28	-25
C[C@H]1CN([C@@H](C)CO)C(=O)c2cc(C#Cc3ccccc3)cnc2O[C@@H]1CN(C)S(=O)(=O)c1ccccc1F	u	x
CN1[C@H](C(=O)NCc2ccccc2F)[C@@H](CO)[C@@H]2Cn3c(ccc(C4=CCCC4)c3=O)[C@@H]21	13	16
CCCNC(=O)N(C)C[C@H]1Oc2ncc(C#CC3(O)CCCC3)cc2C(=O)N([C@H](C)CO)C[C@H]1C	10	11
COCC(=O)N1CCCCN2[C@@H](CO)[C@H](c3ccc(C#Cc4ccccc4)cc3)[C@@H]2C1	-26	-31
CN1CCN(C(=O)C[C@H]2CC[C@@H]3[C@H](COC[C@H](O)CN3C(=O)c3ccc(F)cc3)O2)CC1	9	16
C[C@H](CO)N1C[C@H](C)[C@H](CN(C)S(=O)(=O)c2ccccc2)Oc2ncc(-c3cc4ccccc4o3)cc2C1=O	-13	-15
O=C(O)C[C@@H]1C=C[C@H](NC(=O)CCN2CCCCC2)[C@@H](CO)O1	3	6
CO[C@H]1CN(C)C(=O)c2cc(NS(=O)(=O)c3cccc(C)c3)ccc2OC[C@@H](C)NC[C@H]1C	1	9
COc1ccc(S(=O)(=O)Nc2ccc3c(c2)CC(=O)N([C@H](C)CO)C[C@H](C)[C@@H](CN(C)C(=O)Nc2ccc4c(c2)OCO4)O3)cc1	19	21
CN1C(=O)c2cc(NC(=O)Nc3cccc(Cl)c3)ccc2OC[C@H]2O[C@@H](CC(=O)O)CC[C@@H]21	6	5
C[C@@H]1CN([C@H](C)CO)C(=O)Cc2cc(N(C)C)ccc2O[C@@H]1CN(C)C(=O)Nc1ccccc1	-6	-6
C[C@H](CO)N1C[C@H](C)[C@H](CN(C)S(=O)(=O)c2cn(C)cn2)Oc2ccc(NC(=O)C3CC3)cc2C1=O	15	2
CO[C@@H]1CN(C)C(=O)c2ccc(NC(=O)C3CCCC3)cc2OC[C@H](C)N(C)C[C@H]1C	2	1
C[C@@H]1CN([C@H](C)CO)C(=O)c2cc(NC(=O)CCCCCC(=O)Nc3ccccc3N)ccc2O[C@H]1CN(C)C(=O)Nc1ccc(C(F)(F)F)cc1	13	16
C[C@@H]1CN([C@H](C)CO)C(=O)c2ccccc2-c2ccccc2CO[C@@H]1CN(C)C(=O)CCN(C)C	18	6
CCCNC(=O)N1C[C@H]2[C@@H](c3ccccc31)[C@@H](CO)N2C(=O)Nc1ccc(F)cc1	-7	3
CC(C)C#Cc1ccc([C@@H]2[C@H](CO)N3CCCCN(C(=O)NC(C)C)C[C@@H]23)cc1	-6	-10
C[C@@H]1CCCCO[C@H](CN(C)C(=O)Nc2ccc(F)cc2)[C@@H](C)CN([C@@H](C)CO)C(=O)c2cc(NC(=O)CCCN(C)C)ccc2O1	2	2
O=C(Nc1ccccc1)C1=C[C@@H](c2coc3ccccc3c2=O)C[C@@H](OCc2ccc(CO)cc2)O1	-1	3
CCNC(=O)C[C@H]1CC[C@@H]2[C@H](COC[C@@H](O)CN2C(=O)Nc2ccc(C(F)(F)F)cc2)O1	-18	-12
C[C@H]1CN([C@@H](C)CO)C(=O)c2cc(-c3cccnc3)cnc2O[C@H]1CN(C)C(=O)NC1CCCC1	15	-6

Individual results from the entries so far.
C[C@H](CO)N1C[C@H](C)[C@H](CN(C)S(=O)(=O)c2cn(C)cn2)Oc2ccc(NC(=O)C3CC3)cc2C1=O @ Vaccinia stage Venus: 2
CCC(=O)N1CC[C@@H]2[C@H]1c1cc(C#Cc3cccc(F)c3)ccc1N(C)[C@H]2CO @ Vaccinia stage: 1

Carrying on:
SMILES	Vaccinia stage	Vaccinia stage Venus
CO[C@@H]1CN(C)C(=O)c2cc(NC(=O)C3CCCCC3)ccc2OC[C@H](C)N(Cc2nccs2)C[C@@H]1C	-29	-26
C[C@@H]1CCCCO[C@H](CN(C)Cc2ccc3c(c2)OCO3)[C@@H](C)CN([C@@H](C)CO)C(=O)c2cc(NC(=O)NC3CCCCC3)ccc2O1	u	x
C[C@H]1CN([C@@H](C)CO)C(=O)c2cc(-c3ccncc3)cnc2O[C@H]1CN(C)C(=O)CN1CCOCC1	46	14
C[C@@H]1CCCCO[C@H](CN(C)S(=O)(=O)c2ccc(F)cc2)[C@H](C)CN([C@@H](C)CO)C(=O)c2cc(NS(=O)(=O)c3ccccc3)ccc2O1	-29	-8
C[C@@H]1CN([C@@H](C)CO)C(=O)c2cc(-c3cccnc3)cnc2O[C@@H]1CN(C)Cc1ccc(Oc2ccccc2)cc1	u	x
COc1cccc(NC(=O)N2CC(=O)N3[C@H](CO)[C@H](c4ccc(Br)cc4)[C@@H]3C2)c1	16	-5
Cc1noc(C)c1S(=O)(=O)Nc1ccc2c(c1)C(=O)N([C@@H](C)CO)C[C@@H](C)[C@@H](CN(C)C(=O)Nc1ccc(C(F)(F)F)cc1)OCCCC[C@@H](C)O2	-32	-24
Cc1ccc(S(=O)(=O)N(C)C[C@@H]2Oc3ncc(Br)cc3C(=O)N([C@H](C)CO)C[C@@H]2C)cc1	-4&-10	-9&-13
CO[C@H](CN(C)S(=O)(=O)c1cccc(Cl)c1)[C@@H](C)CN([C@H](C)CO)S(=O)(=O)c1ccc(Cl)cc1	u	x
C[C@@H]1CN([C@H](C)CO)C(=O)c2c(c3ccccc3n2C)-c2ccccc2CO[C@@H]1CN(C)C	-10	-6
CCCN1[C@H](CO)[C@H](c2ccc(C#CC(C)C)cc2)[C@@H]1CN(C)S(C)(=O)=O	8	9
CC(=O)N1CC2(C1)[C@@H](c1ccc(-c3cccc(F)c3)cc1)[C@@H](CO)N2CC1CCCC1	-12	-6
CC(C)[C@H](C)NC(=O)N(C)C[C@@H]1OCc2ccccc2-c2ccccc2C(=O)N([C@H](C)CO)C[C@H]1C	1	0
CCCN(C)C[C@H]1Oc2ncc(C#Cc3ccccc3OC)cc2C(=O)N([C@H](C)CO)C[C@H]1C	u	x
CC=Cc1ccc2n(c1=O)C[C@@H]1[C@@H](CO)[C@H](C(=O)NCC3CCCCC3)N(C(C)=O)[C@H]21 (mixture of isomers)	8	0
COc1ccc2c3c(n(C)c2c1)[C@@H](CO)N(Cc1ccncc1)CC31CN(C(=O)C2CCC2)C1	17	10
CCS(=O)(=O)NCC[C@H]1CC[C@H](NC(=O)C2CCCC2)[C@@H](CO)O1	-9	8
O=C(C1CC1)N1C[C@@H]2[C@H](c3ccccc31)[C@@H](CO)N2C(=O)c1ccccc1	14	0
C[C@H](CO)N1C[C@H](C)[C@@H](CN(C)S(=O)(=O)c2cn(C)cn2)Oc2ccc(NC(=O)CCN3CCOCC3)cc2CC1=O	5	6
O=C(NCc1ccccc1)[C@@]1(Cc2ccccc2)COC(c2ccc(OCCCO)cc2)=N1	u	x
C[C@@H]1CCCCO[C@@H](CN(C)S(=O)(=O)c2ccccc2)[C@@H](C)CN([C@H](C)CO)C(=O)c2cc(NS(C)(=O)=O)ccc2O1	33	16
C[C@@H]1CN([C@@H](C)CO)C(=O)c2cccc(NS(=O)(=O)c3ccc(F)cc3)c2O[C@@H]1CN(C)Cc1ccc(C(=O)O)cc1	16	9
O=C(Nc1ccccc1)[C@@H]1[C@@H](CO)[C@@H]2Cn3c(cccc3=O)[C@H]1N2Cc1ccncc1	7	3
C[C@H]1CN([C@@H](C)CO)C(=O)c2cccc(NC(=O)Nc3ccc4c(c3)OCO4)c2O[C@@H]1CN(C)Cc1ccc(Oc2ccccc2)cc1	4	5
CCCNC(=O)N1CC2(CN(CC3CC3)C2)c2c([nH]c3cc(OC)ccc23)[C@H]1CO	6	4

For convenience, six of the compounds above:
SMILES	Vaccinia stage	Vaccinia stage Venus
COc1cccc(NC(=O)N2CC(=O)N3[C@H](CO)[C@H](c4ccc(Br)cc4)[C@@H]3C2)c1	16	-5
Cc1noc(C)c1S(=O)(=O)Nc1ccc2c(c1)C(=O)N([C@@H](C)CO)C[C@@H](C)[C@@H](CN(C)C(=O)Nc1ccc(C(F)(F)F)cc1)OCCCC[C@@H](C)O2	-32	-24
Cc1ccc(S(=O)(=O)N(C)C[C@@H]2Oc3ncc(Br)cc3C(=O)N([C@H](C)CO)C[C@@H]2C)cc1	-4&-10	-9&-13
CO[C@H](CN(C)S(=O)(=O)c1cccc(Cl)c1)[C@@H](C)CN([C@H](C)CO)S(=O)(=O)c1ccc(Cl)cc1	u	x
C[C@@H]1CN([C@H](C)CO)C(=O)c2c(c3ccccc3n2C)-c2ccccc2CO[C@@H]1CN(C)C	-10	-6
CCCN1[C@H](CO)[C@H](c2ccc(C#CC(C)C)cc2)[C@@H]1CN(C)S(C)(=O)=O	8	9

Next compounds.
SMILES	Vaccinia stage	Vaccinia stage Venus
O=C(C[C@H]1C[C@@H]2c3cc(NC(=O)Nc4ccccc4F)ccc3O[C@@H]2[C@@H](CO)O1)NCCc1ccccc1	2	3
CN1c2ccc(-c3ccccc3)cc2[C@H]2[C@H](CCN2C(=O)c2ccccc2F)[C@H]1CO	u	x
CN(C)Cc1cn(CC[C@H]2CC[C@H](NS(=O)(=O)c3ccc(-c4ccccc4)cc3)[C@H](CO)O2)nn1	-25	-21
COC(=O)C[C@H]1CC[C@@H]2[C@H](COc3ccc(NC(=O)c4ccccc4F)cc3C(=O)N2C)O1	15	10
C[C@H]1CN([C@@H](C)CO)C(=O)c2cc(NS(=O)(=O)c3cccs3)ccc2O[C@H]1CN(C)S(=O)(=O)c1cn(C)cn1	18	6
O=C(C[C@H]1CC[C@H]2[C@@H](COC[C@@H](O)CN2CC2CCCCC2)O1)NCc1ccc(Cl)cc1	u	x
CO[C@H](CN(C)C(=O)Nc1ccc(F)cc1)[C@H](C)CN(Cc1ccccc1Cl)[C@@H](C)CO	-32	-18
COc1ccc2c3c(n(C)c2c1)[C@H](CO)N(Cc1ccc(F)cc1)CC31CCN(CC2CCOCC2)CC1	-13	-10
CCC(=O)N1CCCCN2[C@H](CO)[C@H](c3ccc(-c4cccc(C(=O)N(C)C)c4)cc3)[C@@H]2C1	60	15
Cc1ccc(S(=O)(=O)N(C)C[C@H]2Oc3ccc(NC(=O)NC(C)C)cc3CC(=O)N([C@@H](C)CO)C[C@@H]2C)cc1	5	6
Cc1noc(C)c1NC(=O)Nc1ccc2c(c1)CC(=O)N([C@H](C)CO)C[C@H](C)[C@@H](CN(C)Cc1ccc3c(c1)OCO3)O2	-4	0
C[C@@H]1CN([C@@H](C)CO)C(=O)c2cc(NC(=O)c3ccncc3)ccc2O[C@@H]1CN(C)Cc1ccc(Cl)c(Cl)c1	u	x
O=C(Nc1ccccc1F)N[C@H]1CC[C@@H](CCNC(=O)C2CCCCC2)O[C@@H]1CO	-5	4
CCS(=O)(=O)Nc1ccc2c(c1)C(=O)N(C)[C@H]1CC[C@@H](CC(=O)Nc3ccccc3)O[C@H]1CO2	0	-8
[N-]=[N+]=Nc1ccccc1C[C@]1(C(=O)N2CCOCC2)N=C(c2ccc(OCCCO)cc2)O[C@H]1c1ccccc1	-1	-1
CN(C)C(=O)c1ccc(-c2ccc3c(c2)[C@@H]2[C@@H](CCN2S(=O)(=O)c2cn(C)cn2)[C@@H](CO)N3)cc1	2	0
N#C[C@H]1[C@@H](c2ccc(C#Cc3cccc(F)c3)cc2)[C@H](CO)N1C(=O)C1CCCC1	u	x
Cc1noc(C)c1S(=O)(=O)Nc1ccc2c(c1)C(=O)N([C@H](C)CO)C[C@@H](C)[C@H](CN(C)Cc1ccc(Cl)c(Cl)c1)O2	-22	-11
C[C@H]1CN([C@@H](C)CO)S(=O)(=O)c2ccc(C#CC(C)(C)O)cc2O[C@@H]1CN(C)C	6	5
CC(C)CC#Cc1ccc([C@@H]2[C@H]3CN(C(=O)Cc4cccnc4)CC(=O)N3[C@H]2CO)cc1	-17	-36
C[C@@H]1CN([C@@H](C)CO)C(=O)c2cc(NC(=O)c3ccncc3)ccc2O[C@H]1CN(C)CC1CCCCC1	16	13
COc1ccc(NC(=O)N[C@@H]2CC[C@@H](CCNS(=O)(=O)c3cccc(Cl)c3)O[C@H]2CO)cc1	-18	-10
O=C(C[C@@H]1C[C@@H]2c3cc(NS(=O)(=O)c4ccc(F)cc4)ccc3O[C@@H]2[C@@H](CO)O1)NCc1cccnc1	-13	-8
COCC(=O)N1CC[C@H]2[C@@H]1c1cc(-c3ccc(OC)cc3)ccc1N(C)[C@H]2CO	-1	8
Cc1ccc(S(=O)(=O)Nc2cccc3c2O[C@@H](CN(C)S(=O)(=O)c2ccccc2)[C@@H](C)CN([C@@H](C)CO)C3=O)cc1	3	-6
COCC(=O)N1CC2(C1)[C@H](c1ccc(-c3ccccc3)cc1)[C@@H](CO)N2C(=O)COC	2	8
CN1CCCCN2[C@H](CO)[C@H](c3ccc(-c4ccccc4)cc3)[C@H]2C1	1	-4
C[C@H](CO)N1C[C@H](C)[C@H](CN(C)C(=O)Nc2ccccc2)Oc2ccc(NC(=O)Cc3cn(C)c4ccccc34)cc2C1=O	0	-3
